gsp ag: agonists of gsp mutant (McCune-Albright syndrome) | gsp mutant cells, cAMP HTRF, 30 min; control for the full effect not named in the record | Potency, µM (highest dose often 76.9 µM), without a hit: at the top dose activation (cAMP increase), usual class: activators | hit rate 0.13% among 340,000 | AID 624287; active = well fitted activation curve with a large enough effect; inconclusive = small, poorly fitted or top-dose-only effect, or another doubt; inactive = no such curve, though single readings can be large or run the other way; cell line not stated here;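 note: phosphodiesterase inhibitor Ro 20-1724 added with compounds to block cAMP breakdown; potency is the fitted concentration of half-maximal effect; nearly all actives have a fitted effect of over 60% in size; about a fifth of the inactives were tested at one dose only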
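Cells stably selected in G418 were plated at 2000/well, grown 16-24 hr, then given compounds in DMSO with the PDE inhibitor […] (300 uM solution added) for 30 min at 37C; cAMP was read by HTRF.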
ClpP mod: qHTS Assay for Activators of ClpP; ATP-dependent Clp protease proteolytic subunit (Bacillus subtilis (strain 168)), P80244; purified B. subtilis ClpP, FRET peptide cleavage, 20 min; Potency, µM (top dose mostly 57.5 µM), for inactives: at the top dose activity change, negative = active; hit rate 1.9% among 340,000; AID 651965, 2013; active = well fitted falling curve with a large enough effect; inconclusive = small, poorly fitted or top-dose-only effect; inactive = no such curve, though single readings can be large or run the other way; note: potency is the fitted concentration of half-maximal effect; the source files actives as falling curves though it sought activators and does not explain the sign; nearly all actives have a fitted effect of over 65% in size; many hits overshoot -100%
Target sequence (P80244 whole entry, looked up): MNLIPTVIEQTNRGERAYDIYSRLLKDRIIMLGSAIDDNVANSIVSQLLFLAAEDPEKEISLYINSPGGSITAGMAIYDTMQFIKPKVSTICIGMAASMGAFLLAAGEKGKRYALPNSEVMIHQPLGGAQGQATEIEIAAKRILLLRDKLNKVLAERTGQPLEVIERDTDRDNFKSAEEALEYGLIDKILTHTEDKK
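FRET quenching reversal measured ClpP activation: 10 microg/mL B. subtilis ClpP at pH 8 with the FRET-FV decapeptide, read at 430 nm after 320 nm excitation. The 20-min minus 0-min signal was scaled between DMSO/no-enzyme wells and ADEP (5.8 microM final).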
TRPML1 inh: inhibitors of human TRPML1 channel; Q9GZU1; TRPML1-inducible cells, Ca2+ dye fluorescence, FDSS; hits give low values; inhibition of EC80 agonist-evoked calcium signal; activity change, negative = inhibition, % (test concentration not listed); hit rate 0.02% among 390,000; in the data active means activity change below about -50%; inconclusive means about -30% to -50%; inactive means above about -30%;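 note: stimulus is agonist 54-4 at its EC80 concentration; % is set by controls: 0 for no effect and ±100 for the full control effect; compound concentration not given in the record; the text of the record puts the active cut at -80%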
Target sequence (Q9GZU1 whole entry, looked up): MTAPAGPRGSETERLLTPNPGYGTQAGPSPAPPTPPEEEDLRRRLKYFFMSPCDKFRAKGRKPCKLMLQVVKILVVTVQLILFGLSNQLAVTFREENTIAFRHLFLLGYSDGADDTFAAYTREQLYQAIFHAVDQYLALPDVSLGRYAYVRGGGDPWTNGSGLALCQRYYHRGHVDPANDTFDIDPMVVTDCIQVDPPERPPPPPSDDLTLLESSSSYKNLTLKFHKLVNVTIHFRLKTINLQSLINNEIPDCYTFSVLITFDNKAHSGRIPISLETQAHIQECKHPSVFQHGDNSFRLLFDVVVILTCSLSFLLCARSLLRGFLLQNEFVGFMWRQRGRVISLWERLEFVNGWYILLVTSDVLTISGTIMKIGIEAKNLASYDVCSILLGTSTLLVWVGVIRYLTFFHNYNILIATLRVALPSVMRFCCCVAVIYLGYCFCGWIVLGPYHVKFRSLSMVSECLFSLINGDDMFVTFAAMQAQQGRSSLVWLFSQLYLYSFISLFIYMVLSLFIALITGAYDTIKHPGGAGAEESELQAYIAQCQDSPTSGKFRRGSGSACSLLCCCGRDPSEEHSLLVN
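Tet-induced TRPML1-DL cells loaded with Ca8 no-wash calcium dye were read kinetically on FDSS. Compound addition was followed by EC80 agonist 54-4 (4 uM final); inhibition was read over 110 s.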
TRPML1 agonist: agonists of human TRPML1 channel; AID 624414; activation, % (concentration not given with the values); hit rate 0.12% among 410,000; TRPML1-expressing cells, Ca2+ dye fluorescence, FDSS; host cell line not named in the record; reference of the full effect not given here; Q9GZU1; in the data active = activation above about 50%; inconclusive = about 30% to 50%; inactive = below about 30%; note: 0% is about no effect; the text of the record puts the active cut at 80%
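Tetracycline-induced TRPML1-DL cells are seeded and incubated overnight before loading with a no-wash Ca2+ dye and quencher. Agonist activity is taken from the 110 s fluorescence read following compound pin-transfer on an FDSS, before EC80 54-4 challenge.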
gsp antag: gsp mutant antagonism; gsp-mutant cells, cAMP HTRF, 30 min; control for the full effect not named in the record; Potency, µM (top dose mostly 76.9 µM), for the others: at the top dose activity change, negative = inhibition, hits mostly inhibitors; hit rate 0.4% among 340,000; AID 624288; active = falling curve of any shape with a large fitted effect; inconclusive = falling curve, mostly with a smaller effect; inactive = flat or rising curve; cell line not stated here;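 note: intracellular cAMP measured with PDE inhibitor Ro 20-1724 present during compound exposure; potency is the fitted concentration of half-maximal effect; % is set by controls: 0 for no effect and ±100 for the full control effect; nearly all actives have a fitted effect of over 65% in size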
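HTRF cAMP read-out (cAMP-d2 plus anti-cAMP antibody-K in lysis buffer, 30 min RT). Before lysis, cells are exposed to compounds with […] for 30 min at 37C in DPBS containing Ca/Mg, BSA and Tween 20.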
Menin-MLL FL inh: inhibitors of human menin-MLL interaction, wild-type MLL peptide; Fluorescence polarization, fluorescein-MLL peptide displacement from menin; 290,000 tested, under 10 active; FP activity change, % at 61.4 µM; inconclusive = falling polarisation curve, or a change in total fluorescence; inactive = total fluorescence flat and polarisation flat or rising; no compound was filed as active; the % refers to the polarisation; negative = inhibition;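 note: % of control where 0% means no effect; inhibitors lower the polarisation; unlabelled MLL peptide was the positive control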
An asterisk follows results filed as active; ? = inconclusive; · = no result given; [ ] = remark or other dose.

compound,gsp antag,gsp ag,Menin-MLL FL inh,TRPML1 agonist,TRPML1 inh,ClpP mod
CCc1nnc(NC(=O)CSc2nnc(CNC(=O)c3ccccc3F)n2C)s1,-2.7%,16.0%,4.3,-0.5,2.9,·
CCc1ccc(-c2nc(CSCC(=O)N3CCN(c4ncccn4)CC3)c(C)o2)cc1,?,-29.5%,-0.6,-0.5,18.8,-26.2%
CC(=O)Nc1ccc(S(=O)(=O)NCCSCc2cccc(Cl)c2)cc1,-24.9%,-0.8%,5.3,0.0,-6.1,1.4%
COc1ccc(OCCn2nnc3sc4c(c3c2=O)CCC(C(C)(C)C)C4)cc1 (stereo not drawn),·,·,·,1.4,-27.0,0.7%
CC1(C)Cc2cccc(OCC(=O)N3CCN(c4cccc(Cl)c4)CC3)c2O1,?,-5.4%,·,4.2,2.1,25.1µM*
CCOC(=O)C1=C(C)OC(N)=C(C#N)C1c1cncc(-c2ccc(F)cc2)c1 (stereo not drawn),?,10.6%,10.0,0.8,-5.4,-3.9%
O=C(Nc1cc(S(=O)(=O)N2CCCC2)ccc1OCC(F)(F)F)c1ccc(F)cc1,-14.3%,-65.2%,7.8,2.0,15.7,0.9%
Cc1ccc(S(=O)(=O)CCC(=O)OCC(=O)NCC(=O)Nc2cccc(C)c2C)cc1,2.4%,-10.7%[15.4 µM],·,0.0,3.1,3.3%
CCOC(=O)c1c(C)[nH]c(C)c1S(=O)(=O)N(C)CC(=O)Nc1cccc(C)n1,9.0%,-38.1%[inhibitor],·,0.7,13.9,-1.1%
Cc1ccc(N(C(=O)CC2NC(=O)NC2=O)C2(C(=O)NC3CCCC3)CCCCC2)cc1 (stereo not drawn),4.2%,-22.4%[15.4 µM],-1.0,1.1,-3.1,?
CC1(C)CC(n2c(NCCO)nc3c(c2=O)C2(CCCC2)Cc2ccccc2-3)CCO1 (stereo not drawn),-7.5%,-13.5%,3.8,0.7,3.3,31.6µM*
O=C(CSc1nc(O)c(C2CCCCC2)c(=O)[nH]1)Nc1ccc(F)cc1,5.5%,33.1%[15.4 µM],1.7,0.0,-15.7,·
Cc1ccccc1CN1C(=O)c2ccccc2S(=O)c2ccc(C(=O)NCc3ccccc3)cc21 (stereo not drawn),·,·,·,1.2,-20.3,-1.4%
Cn1c(Br)nc2c1c(=O)n(CC(O)COc1ccccc1)c(=O)n2C (stereo not drawn),-6.5%,?,-1.4,-0.9,2.6,1.0%
O=C(N/N=C/c1ccc(OC(=O)c2ccccc2Cl)cc1)c1ccccn1,2.1%,1.2%[15.4 µM],0.4,-0.5,-1.8,15.0%
O=C(Nc1ccc(S(=O)(=O)N(Cc2ccccc2)c2ccccc2)cc1)c1ccc([N+](=O)[O-])cc1,·,·,·,-0.7,-6.9,-1.4%
CC(=O)N1CCN(CC(O)COc2ccc(OCc3ccccc3)cc2)CC1 (stereo not drawn),-7.4%,-5.7%,-0.6,0.0,-5.8,-0.5%
Cc1ccccc1Oc1ccc(S(=O)(=O)NCCC(=O)O)cc1,-14.6%,-13.9%,0.8,0.7,1.5,-0.3%
CSc1ccccc1C(=O)C1CCCN(S(=O)(=O)c2c(C)noc2C)C1 (stereo not drawn),-21.8%,13.1%[15.4 µM],1.2,0.7,11.2,2.0%
Cc1ccc(CNC(=O)C2CCCN(c3nn4c(=O)cc(C)nc4s3)C2)cc1 (stereo not drawn),·,5.4%[15.4 µM],-3.5,-0.3,10.9,·
O=C(COc1ccc(F)cc1F)NNC(=O)Nc1cccc([N+](=O)[O-])c1,0.5%,10.2%,1.3,1.2,-2.4,-1.7%
O=C(COC(=O)c1cccnc1)Nc1ccc(F)cc1,-9.4%,-20.2%,-5.5,-0.8,7.4,-2.0%
O=C(CCCn1c(=S)[nH]c2cc3c(cc2c1=O)OCO3)NCc1cccc(Cl)c1,-2.6%,10.8%,·,4.1,10.6,-1.8%
COCCC(=O)N1CCC(Oc2ccc(C(=O)NCc3ncc(C)[nH]3)cc2)CC1,6.2%,-14.7%[15.4 µM],·,0.4,-0.8,-1.0%
CN(C)S(=O)(=O)c1cccc(C(=O)Nc2cc(S(=O)(=O)N3CCOCC3)ccc2O)c1,-7.2%,33.4%[15.4 µM],·,1.4,-8.6,-9.4%
CCc1nn2c(=O)cc(COC(=O)c3ccco3)nc2s1,·,·,·,-0.2,-13.5,-3.8%
Cc1ccc(CCNC(=O)CN2N=C(c3ccc(C)cc3)CCC2=O)cc1,·,·,·,-0.6,22.1,-0.9%
CCc1ccc(NC(=O)c2cc(CN3CCOCC3)on2)cc1,·,·,·,1.2,42.5,-1.0%
COC(=O)c1ccc(-c2nc(O)c3cnccn23)cc1,-14.0%,-0.1%,3.4,-0.1,9.2,0.5%
COc1cc(Cn2c(=O)c3c(OC)c(C)cnc3n(C)c2=O)cc(OC)c1,-0.2%,-31.0%[inhibitor],·,0.2,-4.8,-1.4%
CN1CCC(N(C)S(=O)(=O)c2ccc(C(C)(C)C)cc2)CC1,-3.2%,-20.6%,2.0,0.4,-5.6,-3.1%
CC(C)Nc1nc(NC(C)C)nc(OCCOC(=O)Nc2ccccc2)n1,-1.1%,-2.8%,-0.2,2.2,4.7,-1.3%
O=C(CS(=O)(=O)c1c[nH]c2ccccc12)N1CCc2ccccc21,3.4%,?,-2.6,-1.1,8.2,-0.3%
CCC(C(=O)Nc1ccc2c(c1)OCCO2)c1ccccc1 (stereo not drawn),5.3%,-17.0%[15.4 µM],1.7,0.1,6.4,·
CC(NC(=O)c1ccc(S(=O)(=O)Nc2ccccc2)cc1)c1ccc(S(N)(=O)=O)cc1 (stereo not drawn),6.7%,-33.3%[inhibitor],·,-0.2,-3.3,-0.1%
COc1ccc(C(=O)Nc2cc(S(=O)(=O)N3CCCCC3)ccc2C)cc1,·,-11.2%,·,-0.1,-1.2,0.2%
O=C(NCC(c1ccco1)N1CCN(c2ccccc2)CC1)C(=O)NC1CCCCC1 (stereo not drawn),12.0%,18.6%,·,-0.5,5.7,1.6%
CCOc1ccc(NC(=O)Cc2c[nH]c3ccccc23)cc1,·,·,·,0.1,-1.6,-0.8%
Nc1ccc2oc(-c3ccccc3Cl)cc(=O)c2c1O,-4.5%,·,-1.3[94.6 µM],1.2,16.7,1.4%
CC1CCN(C(=O)CSc2nc3[nH]ncc3c(=O)[nH]2)CC1,17.4%,-46.3%[inhibitor],0.1,-0.3,10.6,-4.9%
O=C(N/N=C/c1c[nH]c2ccccc12)c1cc(-c2cccc3ccccc23)n[nH]1,2.5%,?,2.5,0.7,7.4,·
CCCn1c(SCC(=O)NC2CCCCC2)nnc1-c1ccco1,·,-28.7%[15.4 µM],2.7,-0.5,-22.4,·
CC1CN(C(=O)c2ccc(S(=O)(=O)Nc3cccc(C(F)(F)F)c3)cc2)CC(C)O1 (stereo not drawn),1.9%,?,·,5.8,7.4,-2.0%
Cn1cccc1/C=N/NC(=O)Cc1cccc2ccccc12,-17.3%,-17.1%[15.4 µM],-1.1,4.0,8.8,·
CN1CCN(CCCNC(=O)c2ccc(/C=C3/Sc4ccccc4N(Cc4cccc(Cl)c4)C3=O)cc2)CC1,-6.4%,-39.4%[inhibitor],4.0,-0.7,-3.0,-5.0%
O=C(Cc1c(F)cccc1Cl)Nc1ccncc1,-2.6%,-14.0%,2.2,-0.1,-6.0,0.8%
Cc1cccc(C(=O)N[C@H](C(=O)Nc2ncc(C)s2)C(C)C)c1,10.2%,3.6%[15.4 µM],-2.8,-0.8,-14.3,·
COC(=O)c1ccc(C(=O)OCCCc2nc3ccc(N)cc3[nH]2)cc1,-4.3%,-50.4%[inhibitor],1.2,-0.8,20.8,3.7%
CC1CC(C)CN(C(=O)c2ccc(N3CC4CC(C3)c3cccc(=O)n3C4)c([N+](=O)[O-])c2)C1 (stereo not drawn),-3.7%,?,-0.3,-0.5,-6.9,-0.7%
COc1ccc(-n2c(CNC(=O)COc3ccc(Cl)cc3)n[nH]c2=S)cc1,·,28.5%[15.4 µM],-2.3,0.1,7.9,·
CSc1nc(Oc2ccc(=O)[nH]n2)nc(N(C)C)n1,-0.5%,-35.8%[inhibitor],2.2,-0.5,3.2,-1.1%
O=c1c(C/C=C/c2ccccc2)c(O)ccn1Cc1cccc(Cl)c1,-14.3%,11.8%,-4.1,1.5,36.0,1.3%
CCOC(=O)N1CCC(c2[nH][nH]c(=O)c2C)CC1,2.1%,2.4%,-3.2,-0.4,-9.6,1.8%
CCCCC(CC)CN1CN(CC(CC)CCCC)CC(C)(N)C1 (stereo not drawn),2.8%,·,0.2,-0.4,-5.8,0.8%
COCCNC(=O)Nc1ccc2c(c1)N(C)C(=O)c1ccccc1S2,-2.6%,19.7%[15.4 µM],-0.9,-0.1,-12.1,·
CCN(CC(=O)Nc1c(C(=O)OC)[nH]c2ccc(Cl)cc12)c1ccc2c(c1)OCO2,?,15.0%,-11.6,-0.8,3.9,-3.8%
CCOC(=O)N1CCN(C(=O)c2ccc3c(c2)N(Cc2ccc(C)cc2)CCS3)CC1,?,15.2%,1.7,2.2,28.9,-26.7%
O=[N+]([O-])c1ccccc1/C=N/NC1=NCCN1,0.3%,-0.9%[15.4 µM],·,0.1,-5.1,1.1%
Cc1ccc(C)c(NC(=O)c2cc(=O)c3ccccc3o2)c1,3.0%,-40.5%[inhibitor],0.7,0.9,18.7,-0.6%
Cc1ccc(S(=O)(=O)Nc2ccnc(-c3cccnc3)n2)cc1,-14.4%,2.6%[15.4 µM],-1.3,-0.3,-6.9,·

The list continues.
compound,gsp antag,gsp ag,Menin-MLL FL inh,TRPML1 agonist,TRPML1 inh,ClpP mod
Cc1ccccc1OCCn1c(S(=O)(=O)O)nc2c(N)ncnc21,21.2%,-2.4%[15.4 µM],1.8,-0.6,-1.9,0.3%
O=C(NNC(=S)NCc1ccccc1)c1cccnc1,-8.3%,-2.1%,1.3,-0.1,-4.5,-1.9%
N#C/C(=C/c1ccncc1)c1nc2ccccc2c(=O)[nH]1,-9.7%,-20.6%[15.4 µM],?,2.1,15.7,·
O=C(COC(=O)Cc1ccccc1F)Nc1ccc(F)cc1F,1.3%,-7.3%[15.4 µM],0.2,-1.4,1.7,-2.9%
CC1CCCN(S(=O)(=O)c2cnc[nH]2)C1 (stereo not drawn),-5.7%,-0.7%,·,-0.7,-9.9,-1.0%
CCSc1nnc(NC(=O)C2CCCCC2C(=O)OCC(F)(F)C(F)F)s1 (stereo not drawn),7.8%,-1.8%,-1.2,-0.6,2.7,1.8%
O=C(NCC1CCC(C(=O)O)CC1)OCc1ccccc1 (stereo not drawn),-5.7%,9.7%[15.4 µM],2.3,-0.8,4.1,0.1%
O=C(Nc1ncc(Cc2cccc(Cl)c2)s1)c1cccs1,18.4%,-10.0%,2.6,-0.7,2.3,-7.9%
Cc1ccc(-c2cn3c(n2)sc2cc(C(=O)NCc4cccs4)ccc23)c(C)c1,·,·,·,1.6,15.4,4.6%

Screening data as filed in PubChem BioAssay.
